Rango complex inh = Rango-importin beta binding inhibition; actives 0.031% (n = 340,000); Potency, µM (highest dose often 92.2 µM), without a hit: at the highest dose inhibition of complex formation; Q14974; Rango CFP/YFP FRET sensor + importin beta, 45 min; active = rising FRET ratio curve, often small or poorly fitted; inconclusive = mostly compound fluorescence or quenching in the first reads; inactive = flat curves in all reads;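 also: potency is read from the fitted curve at half-maximal effect; 0% = DMSO wells and 100% = buffer wells lacking importin beta; nearly all actives have a fitted effect of over 15% in size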
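Inhibition scored from the CFP 486 nm/YFP 530 nm FRET ratio 45 min after adding 0.125 microM importin beta to 50 nM Rango biosensor preincubated 5 min with compound (room temperature, PBS with DTT, Tween-20, BSA). No-importin wells as positive control.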
GLA inh pH 4.5 = inhibitors of human alpha-galactosidase A at pH 4.5 | P06280 | purified enzyme, 4-MU-alpha-Gal fluorescence, pH 4.5 | activity change, negative = inhibition, % at 105 µM | 230,000 tested, under 10 active | AID 1467; inconclusive = small, poorly fitted or top-dose-only inhibition, or a rising curve; inactive = flat fitted curve, though single readings scatter; no compound was filed as active;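 also: 0% = full activity with enzyme and -100% = basal without enzyme; dose as in the result columns while the protocol names 77 µM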
Target sequence (P06280 whole entry, looked up): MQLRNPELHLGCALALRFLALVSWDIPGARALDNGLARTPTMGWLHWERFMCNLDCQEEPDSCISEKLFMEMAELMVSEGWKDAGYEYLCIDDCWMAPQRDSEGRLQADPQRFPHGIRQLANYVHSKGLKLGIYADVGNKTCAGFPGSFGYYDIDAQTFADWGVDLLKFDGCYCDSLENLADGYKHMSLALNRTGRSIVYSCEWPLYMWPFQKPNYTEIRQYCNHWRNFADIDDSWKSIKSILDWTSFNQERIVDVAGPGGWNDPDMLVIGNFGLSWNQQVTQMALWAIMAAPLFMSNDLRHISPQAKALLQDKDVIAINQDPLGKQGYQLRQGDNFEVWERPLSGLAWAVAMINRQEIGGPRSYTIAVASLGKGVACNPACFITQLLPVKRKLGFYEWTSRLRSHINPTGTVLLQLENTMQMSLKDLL
Rango release inh = inhibitors of RanGTP-induced Rango-importin beta complex dissociation; Biochemical FRET Rango-importin beta, RanGTP-induced dissociation; Potency, µM (titrated, usually from 46.1 µM), for inactives: top-dose activity change, negative = inhibition; actives 0.071% (n = 340,000); AID 540253; active means falling FRET ratio curve, often poorly fitted, with flat reads before Ran was added; inconclusive means other falling curves, or compound fluorescence or quenching; inactive means flat or rising ratio curve;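 also: potency is read from the fitted curve at half-maximal effect; % of control where 0% means no effect; nearly all actives have a fitted effect of over 45% in size; -100% = wells without RanGTP and RCC1; the record marks most hits as doubtful in a second field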
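Rango/importin beta premix (0.1/0.25 uM final), PBS + 1 mM DTT + 0.02% Tween-20 + 0.1% BSA; cpd 5 min RT; FRET pre-read; + RanGTP-RCC1 (0.6 uM Ran, 2 mM GTP, 0.2 uM RCC1); 45 min RT; FRET post-read, ex 430, em 486/530 nm.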
miR-21 reporter = raises the signal of a miR-21 reporter | HeLa miR-21 FLuc reporter, luciferase, 48 h | Potency, µM (series often up to 38.3 µM), without a hit: at the top dose reporter change, positive = more light | 340,000 tested, under 10 active | AID 2288; active = well fitted rising curve with a large enough effect; inconclusive = small, poorly fitted or top-dose-only effect; inactive = no such curve, though single readings can be large or run the other way;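 also: % of control where 0% means no effect; miR-21 action dims this reporter so a rising signal means less miR-21 action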
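Compounds were titrated across several concentrations (up to approximately 40 uM) and incubated 48 hours with HeLa miR-21-FLuc reporter cells (miR-21 target sequence downstream of FLuc, endogenous miR-21). Readout was firefly luciferase luminescence after lytic detection reagent.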
Numbers without * were called inactive; ? = inconclusive; . = not tested or not shown; & = joins results of further samples; [ ] = another dose, or the depositor's remark. An excerpt; rates above refer to the full screens.

entry | SMILES | Rango complex inh | GLA inh pH 4.5 | miR-21 reporter | Rango release inh
1 | CCC(=O)Nc1ccc2c(c1)ncn2C | 2.7% | 5 | -5% | -7%
2 | N#Cc1ccccc1NC(=S)NC(=O)c1cccs1 | 2.5% | . | -27% | 2%
3 | O=C1C(Cc2ccccc2)Nc2ncnc(N3CCCCC3)c2N1Cc1ccc(Br)cc1 (stereo unspecified) | -0.4% | . | . | 0%
4 | O=C(CCc1nc2ccccc2s1)N1CCN(S(=O)(=O)c2cccs2)CC1 | -1.2% | 12 | -2% | -2%
5 | CCOC(NC(=O)c1ccccc1)C(NC(=O)c1ccccc1)OCC (stereo unspecified) | -1.5% | -24 | -8% | 9%
6 | Cc1noc(C)c1NC(=O)Nc1ccc2c(c1)CC(=O)N([C@H](C)CO)C[C@@H](C)[C@H](CN(C)CC1CCCCC1)O2 | -4.1% | . | . | 17%
7 | Cc1c(NC(=S)NC(=O)c2sc3ccccc3c2Cl)cccc1C(=O)O | -4.6% | 1 | -29% | -14%
8 | Cc1ccccc1CCNC(=O)c1cc(C2CC2)nc2c1cnn2C(C)C | -1.6% | . | . | -3%
9 | Cc1cc(C)n(-c2nc(NCC(C)O)c3c4c(sc3n2)COC(C)(C)C4)n1 (stereo unspecified) | -4.8% | 0 | -13% | 0%
10 | COc1cc(NC(=O)c2cnc(N)s2)cc(C(=O)Nc2cccc(C(F)(F)F)c2)c1 | -0.8% | -3 | 11% | -7%
11 | O=C(Nc1ccccc1)c1cc2c(=O)c3ccccc3oc2nc1C(F)(F)F | -1.2% | 2 | 1% | -4%
12 | Cc1ccc(C(=O)N(CC(=O)NC2CCCC2)c2ccccc2C)s1 | -1.0% | -3 | 6% | 30%
13 | O=C1/C(=C\c2cc(Br)cc(Br)c2O)SC(=S)N1Cc1ccccc1 | ? | . | -2% | -30%
14 | COc1ccc(NC(=O)CN(C)C(=O)CCNC(=O)Nc2ccccc2)cc1 | 1.0% | . | . | -1%
15 | OC(CNCc1ccccc1C(F)(F)F)C(F)(F)F (stereo unspecified) | -0.3% | -1 | -1% | 3%
16 | CCN(CC)S(=O)(=O)c1cccc(-c2nnc(SC(C)C(N)=O)n2CCc2ccccc2)c1 (stereo unspecified) | 2.6% | 1 | -3% | -1%
17 | COc1ccccc1N1CCN(C(=O)c2nn(C)c3c2CS(=O)(=O)c2ccccc2-3)CC1 | 0.6% | . | 0%&12% | 19%
18 | O=C(COc1ccccc1)Nc1ccccc1C(=O)NC1CC1 | -0.7% | . | . | 39%
19 | CCC(C)(C(=O)NC1CCCCC1)N(Cc1ccco1)C(=O)CC1NC(=O)NC1=O (stereo unspecified) | -0.1% | 6 | -5% | 1%
20 | CN=C(Nc1ccccc1)SC1CC(=O)N(c2ccc(C(=O)OC)cc2)C1=O (stereo unspecified) | -0.2% | -4 | 0% | 5%
21 | O=C(c1cc2cc3ccc(Cl)cc3nc2o1)N1CCN(Cc2ccc3c(c2)OCO3)CC1 | ? | . | . | ?
22 | CC1(C)C(=O)Nc2ccccc2N1C(=O)CN1C(=O)C(=O)N(C2CCCC2)C1=O | -2.5% | 3 | 0% | 11%
23 | O=C(CSc1nnc(-c2ccncc2)n1-c1ccccc1Cl)Nc1ccc(C(=O)O)cc1 | -0.1% | -2 | 6% | 17%
24 | CCSc1ncc(Cl)c(C(=O)Nc2ccc(S(N)(=O)=O)cc2)n1 | 0.9% | . | 18% | -13%
25 | CN1C(=S)NC(C)(C)CC1(C)c1ccc(O)cc1O (stereo unspecified) | -2.3% | 5 | 0% | 1%

Six compounds from above, ordered by molar mass, rising.
entry | SMILES | Rango complex inh | GLA inh pH 4.5 | miR-21 reporter | Rango release inh
2 | N#Cc1ccccc1NC(=S)NC(=O)c1cccs1 | 2.5% | . | -27% | 2%
5 | CCOC(NC(=O)c1ccccc1)C(NC(=O)c1ccccc1)OCC (stereo unspecified) | -1.5% | -24 | -8% | 9%
8 | Cc1ccccc1CCNC(=O)c1cc(C2CC2)nc2c1cnn2C(C)C | -1.6% | . | . | -3%
19 | CCC(C)(C(=O)NC1CCCCC1)N(Cc1ccco1)C(=O)CC1NC(=O)NC1=O (stereo unspecified) | -0.1% | 6 | -5% | 1%
4 | O=C(CCc1nc2ccccc2s1)N1CCN(S(=O)(=O)c2cccs2)CC1 | -1.2% | 12 | -2% | -2%
17 | COc1ccccc1N1CCN(C(=O)c2nn(C)c3c2CS(=O)(=O)c2ccccc2-3)CC1 | 0.6% | . | 0%&12% | 19%

Further records follow.
entry | SMILES | Rango complex inh | GLA inh pH 4.5 | miR-21 reporter | Rango release inh
26 | Cc1cc(N2CCN(C)CC2)nc2ccc(NC(=O)CCC(=O)NCCC3=CCCCC3)cc12 | -0.8% | . | . | 0%
27 | c1ccc2[nH]c(SCc3cscn3)nc2c1 | -3.6% | -1 | -47% | 11%
28 | CC(C)CCNC(=O)NC(=O)COC(=O)/C=C/c1cccc([N+](=O)[O-])c1 | ? | 1 | 2% | 0%
29 | Cc1ccc(C(=O)OCc2nnc(-c3ccccc3)o2)s1 | 0.5% | . | . | -10%
30 | COc1ccc(CN(C)CC(O)COC(c2ccccc2)c2ccccc2)c(OC)c1OC (stereo unspecified) | 0.8% | . | ? | -19%
31 | Cc1ccc(N2C(N)=C(C#N)C(c3cccnc3)C3=C2CC(C)(C)CC3=O)cc1 (stereo unspecified) | ? | -6 | 3% | -13%
32 | Cn1c(CNC(=O)C(Cc2ccccc2)NC(=O)c2cccc(F)c2)cc(=O)n(C)c1=O (stereo unspecified) | -0.7% | . | 1% | -2%
33 | CCOc1cc(C2C(C(=O)N3CCOCC3)=C(C)NC3=C2C(=O)CCC3)ccc1O (stereo unspecified) | 2.4% | -4 | 0% | 23%
34 | CCC(CC)NC(=O)CSc1nnc(-c2c[nH]c3ccccc23)o1 | -1.9% | -2 | 2% | 3%
35 | COc1ccc(C2=Nc3ccc(Br)cc3C(c3ccccc3)N2CC(=O)NN)cc1 (stereo unspecified) | 0.4% | -12 | 4% | 0%
36 | Cc1c(N2C(=O)/C(=C\c3cccc4ccccc34)SC2=S)c(=O)n(-c2ccccc2)n1C | 2.0% | 0 | -3% | 9%
37 | CS(=O)(=O)NN1C(=O)c2ccccc2NC1c1cc2ccccc2nc1Cl (stereo unspecified) | 5.0% | -5 | -32% | -18%
38 | CCC1CCCCN1CCCNC(=O)CNC(=O)Cn1ccc2ccccc2c1=O (stereo unspecified) | -6.0% | 3 | -1% | -2%
39 | O=C(O)CC(NC(=O)Cc1ccc(Cl)cc1)c1ccco1 (stereo unspecified) | 1.5% | 4[21.1 µM] | 1% | 4%
40 | CCOC(=O)c1ccc(S(=O)(=O)N2CCN(C(=O)c3nn(C)c(=O)c4ccccc34)CC2)cc1 | 0.4% | -12 | 3% | -3%
41 | Cc1cc(-c2ccc(S(=O)(=O)N3CCN(c4ccc(F)cc4)CC3)s2)on1 | -0.9% | . | 2% | 1%
42 | COC(=O)c1ccc(-c2nc3cc(Cl)c(N)cc3s2)cc1 | ? | -1 | -25% | ?
43 | CCC1CCCCN1C(=O)COC(=O)c1ccc(S(=O)(=O)N2CCOCC2)cc1 (stereo unspecified) | 0.3% | 7 | -1% | 0%
44 | Cc1ccc(S(=O)(=O)Nc2ccc(S(=O)(=O)N3CCCC3)cc2)cc1 | ? | 2 | -6% | -18%
45 | CC(C)Oc1cccc(-c2cc(C(=O)N3CCN(c4ncccn4)CC3)c3ccccc3n2)c1 | . | -16 | 1% | .
46 | COc1ccccc1N1CCN(C(c2cccs2)C(C)NC(=O)c2ccncc2)CC1 (stereo unspecified) | 0.1% | -4 | 8% | 17%
47 | Cc1ccc(-c2cc(C(=O)OC3CCOC3=O)c3ccccc3n2)c(C)c1 (stereo unspecified) | 3.9% | 3 | -1% | 7%
48 | O=C(Cn1c(=O)c(=O)n(Cc2ccccc2)c2ccc(Cl)cc21)Nc1cc(F)ccc1F | . | -3 | -8% | .
49 | O=C1CC(c2ccccc2F)c2c(c3ccccc3[nH]c2=O)O1 (stereo unspecified) | -0.5% | 8 | 6% | 22%
50 | Cc1ccc(OCCSc2nnc(-c3cccs3)n2C)cc1 | -0.1% | 3 | -6% | 9%
51 | COc1ccc(OCC(=O)N/N=C/c2cccn2-c2cccc(C(=O)O)c2)cc1 | 0.2% | . | . | 5%
52 | COc1cccc(N2CC(NC(=O)C(=O)c3c(C)[nH]c4ccccc34)CC2=O)c1 (stereo unspecified) | -4.4% | . | . | -15%
53 | Cc1ccc(C(C)NC(=O)C23CC4CC(CC(C4)C2)C3)cc1 (stereo unspecified) | 0.6% | 0 | -3% | -12%
54 | Cc1cc(=O)oc2cc(OCC(=O)OCC(=O)N3CCc4ccccc43)ccc12 | -0.2% | 1 | -7% | 2%
55 | COc1ccc(CCn2c(Br)nc3c2c(=O)[nH]c(=O)n3C)cc1 | -2.4% | -1 | -3% | 3%
56 | COc1ccccc1-n1nnnc1SCC(=O)Nc1ccccc1 | 0.8% | . | -5% | -17%
57 | Cc1ccc(CNC(=O)c2nnc(Cc3ccc(Cl)cc3)o2)cc1 | -0.7% | -2 | 0%&-5% | -19%
58 | Cc1ccc(-c2noc(CSc3nnnn3-c3ccccc3)n2)cc1 | ? | 0 | -11% | -16%
59 | O=C(c1cccs1)N1CCN(Cc2ccc3c(c2)OCO3)CC1 | 0.6% | 2 | -11% | -17%
60 | CC1CCCCC1NC(=O)CCCc1nc2ccccc2c(=O)[nH]1 (stereo unspecified) | 2.1% | 4 | -11% | -1%
61 | O=C(OCc1cccc([N+](=O)[O-])c1)c1ccc[nH]c1=O | 1.0% | . | -3% | -8%
62 | CC(Oc1ccc(Cl)cc1)C(=O)OCC(=O)Nc1ncc(Cl)cc1Cl (stereo unspecified) | -0.1% | 5 | -2% | 2%
63 | O=c1c2ccccc2nc2c3ccccc3c(NCCO)nn12 | 0.4% | 18 | 0% | -10%
64 | CC(=O)C1=C(O)C(=O)N(Cc2cccnc2)C1c1ccc(Cl)cc1 (stereo unspecified) | 4.7% | 3 | -3% | 10%
65 | CCCN1Cc2cccc(C(=O)Nc3cc(OC)cc(OC)c3)c2C1=O | 3.7% | -4 | 2% | 1%
66 | CC(NC(=S)Nc1ccc([N+](=O)[O-])cc1)c1ccncc1 (stereo unspecified) | 1.7% | 1 | 10% | 3%
67 | CCCCNC(=O)CS(=O)Cc1nc(-c2cccc(Cl)c2)oc1C (stereo unspecified) | -0.3% | -4 | -4% | -9%
68 | CCOC(=O)Nc1ccc2c(c1)N(C(=O)CCN1CCN(CCO)CC1)c1ccccc1CC2 | 0.1% | -9 | 6% | 1%
69 | COC(=O)c1c(-c2cccnc2)csc1NC(=O)c1ccc2c(c1)OCO2 | ? | . | -67% | 4%
70 | CC(C)(C)CC(C)(C)NC(=O)CSCC(=O)Nc1ccc2ccccc2c1 | 3.6% | -17 | 0% | 9%
71 | NC(=O)C1(N2CCCCC2)CCN(C(=O)c2ccc(-n3cnnn3)cc2)CC1 | -4.6% | -5 | 3% | 7%
72 | CC(=O)N/C(=C\c1ccccc1)C(=O)OCC(=O)NC1CCS(=O)(=O)C1 (stereo unspecified) | -1.1% | . | . | -13%
73 | O=C(NCc1cccs1)c1nc2c(nnn2Cc2ccc(F)cc2)c(=O)[nH]1 | 7.1% | -2 | -14% | -4%
74 | N=c1c2c(-c3ccccc3)c(-c3ccccc3)n(Cc3ccco3)c2ncn1Cc1ccccc1 | 1.7% | 3 | ? | -7%
75 | COc1cc(Cl)c(C)cc1NC(=O)CSc1nnc(-c2ccccn2)n1Cc1ccco1 | -1.1% | 1 | -2% | -13%

(cont.)
entry | SMILES | Rango complex inh | GLA inh pH 4.5 | miR-21 reporter | Rango release inh
76 | CN(CC(=O)Nc1ccccc1Cl)C(=O)COC(=O)/C=C/c1cccs1 | 0.2% | . | . | 0%
77 | COC(=O)c1cc(C(=O)OCC(=O)Nc2ccccc2OC(F)F)cc([N+](=O)[O-])c1 | -1.3% | -1 | -7% | 9%
78 | COc1ccc2nc(NC(=O)c3ccc(NC(=O)C4CCCO4)cc3)sc2c1 (stereo unspecified) | -0.9% | . | -6% | 1%
79 | CCc1nnc(NC(=O)CSc2nc3[nH]c(=O)cc(O)c3s2)s1 | ? | . | . | -3%
